# Screening results: PubChem BioAssay, National Center for Advancing Translational Sciences (NCATS)
# Anthrax LT inh = anthrax lethal toxin internalization inhibition | Cells, anthrax lethal toxin internalization, FRET ratio (460/530) | 0.67% of 70,000 active | Potency, µM (series often up to 40 µM), inactives show top-dose activity change, negative = inhibition, hits mostly inhibitors; active = well fitted falling ratio curve with the 530 nm signal flat; inconclusive = other ratio curves, or a change in one channel alone; inactive = flat curves in the ratio and both channels; the % refers to the ratio; further: on the % scale 0 is the no-effect control and ±100 the full control effect; nearly all actives have a fitted effect of over 50% in size; tested in ME-180 cells; beta-lactamase reporter
# Prx2 Sm inh = Schistosoma mansoni Prx2 inhibition; AID 448; 0.07% of 65,000 active; S. mansoni Prx2 activity coupled to TGR/GSH (TGR is thioredoxin glutathione reductase), NADPH fluorescence loss, qHTS; some inactives read as strong as hits; Potency, µM; active means full or partial inhibition curve with a strong effect at the top dose; inconclusive means weaker partial or single-point curve; inactive means no accepted curve; further: series up to 57 µM; many of its hits are not listed in these tables
#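 qHTS, coupled TGR/Prx2 format; 15 min compound preincubation at RT; reaction started with H2O2 (2.5 mM aliquot); kinetic NADPH fluorescence decrease, ex 365/em 450 nm.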
# * marks the source's active call; other numbers are inactive results; ? = inconclusive; · = not tested or not shown; & = joins results of further samples; [ ] = remark or other dose. Potency means the concentration at half of the fitted maximal effect. Some of the compounds tested; the hit share may differ from the screen's.
molecule	Anthrax LT inh	Prx2 Sm inh
O=C(CSc1nnc(-c2ccco2)n1Cc1ccccc1)c1ccc(F)cc1	-29.0%	>57
Cc1nc(SCC(=O)OCc2ccccc2)c2c(=O)n(C)c(=O)n(C)c2n1	-6.4%	>57
COc1ccc(CCNC(=O)c2c(O)c3cccc4c3n(c2=O)CC4)cc1	-8.5%	>57
O=C(COc1ccccc1)NCC(=O)NC1=NCCS1	2.5%	>57
OC(CN1C2=NCCCN2c2ccccc21)c1ccc2c(c1)OCO2 (stereo not given)	-2.8%	>57
CCOC(=O)c1[nH]c(C)c(C(=O)OCC(=O)NC(=O)NC(C)(C)C)c1C	4.1%	>57
CC(C)(C)c1ccc(S(=O)(=O)NCC(=O)N2CCN(C(=O)c3ccco3)CC2)cc1	-6.2%	>57
CCCCN1C(=O)C(NC(C)=O)c2ccccc21 (stereo not given)	11.8%	>57
Cc1ccc(S(=O)(=O)c2nc(NC3CCS(=O)(=O)C3)sc2Cl)cc1 (stereo not given)	1.8%	>57
CCCOc1ccccc1-c1nc2c([nH]1)c(=O)[nH]c(=O)n2C	2.8%	>57
COc1cccc(OC)c1C(=O)Nc1c(C)n(C)n(-c2ccccc2)c1=O	-10.0%	>57
c1ccc(SC(Sc2ccccc2)c2ccc3c(c2)OCO3)cc1	-15.3%[8 µM]	>57
CC(C)CCn1c(SCCN2CCOCC2)nc2c1c(=O)[nH]c(=O)n2C	-7.9%	>57
CCCC1=C(C(=O)OCC)C(c2ccccc2OC)NC(=O)N1 (stereo not given)	9.6%	·
Cc1ccc(NC(=O)c2cccs2)cc1NC(=O)c1ccco1	?	>57
CCOc1ccccc1N1CCN(CC(=O)Nc2nnc(CC)s2)CC1	-2.6%	>57
O=C(NCc1ccc2c(c1)OCO2)C1CCCN(S(=O)(=O)c2cccc3nonc23)C1 (stereo not given)	-5.5%	>57
O=C(Nc1cnc2sc3c(n2c1=O)CCCC3)c1ccc(F)cc1	-6.2%	>57
O=C(CSc1nnc(CNc2ccccc2)o1)N1CCN(C(=O)c2ccco2)CC1	5.8%	>57
Cc1cc(C)n(-c2nnc(C)n2/N=C/c2cc(Br)ccc2OCc2ccccc2)n1	?	·
CC(C)Sc1oc(-c2ccco2)nc1S(=O)(=O)c1ccccc1	?	>57
COc1ccc(S(=O)(=O)N(Cc2nc3ccccc3c(=O)[nH]2)C2CCCC2)cc1	-4.8%	>57
COC(=O)C1=C(C)NC(=O)CC1c1cc(Br)ccc1F (stereo not given)	·	>57
COc1ccc(Br)c2c1C[C@H](C(=O)O)CC2	-10.3%[8 µM]	>57
Cc1ccc2c(CC(=O)NCc3ccc4c(c3)OCO4)coc2c1	-6.0%	>57
CCCOc1ccccc1C1SCC(=O)Nc2c1c(=O)[nH]n2C(C)CCC (stereo not given)	-1.5%	>57
Fc1ccccc1CSc1nnc(-c2cccs2)o1	-10.7%	>57
C=C1C(=O)C=C2CN(C(=O)c3ccccc3)[C@@](Cc3ccc(F)cc3)(C(=O)OC)[C@@H]12	?	>57
C=C[C@@H]1C[C@@]1(C)[C@@H](NP(=O)(c1ccccc1)c1ccccc1)c1ccccc1	?	·
CC1CCN(CCCNC(=O)C2CC(=O)N(C3CCCCCC3)C2)CC1 (stereo not given)	6.0%	>57

# (cont.)
molecule	Anthrax LT inh	Prx2 Sm inh
CS(=O)(=O)N1CCC(C(=O)NCc2ccncc2)CC1	?	>57
CC(C)Nc1c(N)c(=O)oc2ccccc12	-8.1%	>57
COc1cc(OC)c(N2CC34C=CC(O3)C(C(=O)O)C4C2=O)cc1Cl (stereo not given)	·	>57
O=C(O)/C=C\c1ccc[c]([Sb](=[O])([OH])[OH])c1	-19.2%[8 µM]	>57
CC(=O)C1=C(O)C(=O)N(Cc2cccnc2)C1c1ccc(Cl)cc1Cl (stereo not given)	5.5%	>57
Cc1ccc(Nc2nc(N3CCOCC3)c3ccccc3n2)cc1	-13.7%	>57
CSC1=NCCN1C(=O)c1cccs1	4.1%	>57
Cc1ccc(C(=O)NC2CCCc3ccccc32)o1 (stereo not given)	-8.4%	>57
CCn1c(SCC(=O)Nc2cc(C)on2)nnc1-c1cccs1	-10.2%	>57
CCCN(CCC)[C@@H]1CCc2cccc(O)c2C1	?	>57&>57&>57&>57
COCCN1C(=O)C(=O)/C(=C(/O)c2cccc(OC)c2)C1c1ccncc1 (stereo not given)	10.2%	>57
O=C(O)CCC(=O)NC1CCCCC1NC(=O)CCC(=O)O (stereo not given)	-6.3%	>57
O=C(CCS(=O)(=O)c1cccc2nonc12)N1CCOCC1	7.8%	>57
Cc1ccc(NS(=O)(=O)c2ccc(NC(=O)c3ccc(Br)o3)cc2)c(C)c1	·	>57
CCOc1ccc(NC(=O)CSc2nnc(-c3ccccc3Cl)n2Cc2ccco2)cc1	-13.0%	>57
COc1ccc(Cn2c(=O)[nH]c3cc(C(=O)N4CCN(Cc5ccccc5)CC4)ccc3c2=O)cc1	-5.6%	>57
Cc1ccccc1-n1c(Cn2c(=O)sc3ccccc32)nnc1SCC(=O)N1CCOCC1	10.2%	>57
c1ccc(Cc2nnc3sc(Nc4ccccc4)nn23)cc1	2.4%	>57
CCC(C)NC(=O)CCNS(=O)(=O)c1ccc(Br)cc1 (stereo not given)	?	>57
NC(=O)C1CCCN(Cc2ccc(Cl)cc2)C1 (stereo not given)	-5.6%	·
CC(=O)c1ccc(NC(=O)C2CCC(C)NC2=O)cc1 (stereo not given)	-12.1%	>57
CCS(=O)(=O)NCCc1cc2cc(C)c(C)cc2[nH]c1=O	2.5%	>57
Cc1cc2cc(CN(Cc3ccco3)C(=O)NCc3ccccc3)c(=O)[nH]c2cc1C	-21.5%	>57
O=C(CN(C(=O)C1CSC(=O)C1)c1ccccc1F)NCc1ccc2c(c1)OCO2 (stereo not given)	2.9%	>57
O=C(Cn1cnc2ccccc2c1=O)NCC(=O)N1CCN(c2ccccn2)CC1	7.0%	>57
CCCCN(CC)S(=O)(=O)c1ccc2c(c1)CCCN2C(C)=O	17.1%	>57
O=C(CCCC1=NS(=O)(=O)c2ccccc2N1)N1CCN(c2ccccc2)CC1	12.9%	>57
CC(C)OC(=O)C1C(=O)CC(C)(O)C(C(=O)OC(C)C)C1c1cccc(O)c1 (stereo not given)	6.4%	>57
[O-][n+]1onc2c1CCC1N(O)CCC21O (stereo not given)	4.0%	>57
CCOC(=O)CCN1C(=O)[C@H]2[C@H]3[C@H](O)[C@H](O)C/C(=N/OC/C=C(\C)CCC=C(C)C)[C@@H]3CC[C@@H]2C1=O	8.7%[1.6 µM]	·

# New compounds follow:
molecule	Anthrax LT inh	Prx2 Sm inh
CCCCn1c(NCCN(C)C)nc2c1c(=O)[nH]c(=O)n2C	4.3%	>57
O=C(COC(=O)c1ccccn1)Nc1ncc(C(F)(F)F)cc1Cl	-5.4%	>57
CC(=O)NCCNc1cc(-c2ccccc2C(F)(F)F)ncn1	15.2%	>57
C[C@@]12CC(=O)[C@H]3[C@@H](CCC4=CC(=O)CC[C@]43C)[C@H]1CCC2=O	-6.2%[3.58 µM]	>57
CCOC(=O)c1c(C)oc2c1c1c(c3ccccc32)OCN(Cc2cccnc2)C1	-18.1%	>57
CC(Oc1ccc(Cl)cc1Cl)C(=O)NCCCn1ccnc1 (stereo not given)	-7.7%	>57
Cc1ccc(-c2nnn(CC(=O)N(c3ccc(F)cc3)C(C(=O)NC3CCCC3)c3ccco3)n2)o1 (stereo not given)	-20.7%	>57
O=C1Nc2ccccc2C1=Nc1ccc(-c2nnc3n2CCCCC3)cc1	-2.6%	>57
FC(F)(F)c1ccccc1-c1ccc2ncnc(NC3CC3)c2c1	3.8%	>57
COCCNC(=O)CN1CCOc2ccccc21	-9.5%	>57
CCN(CC)C(=O)c1ccc(NS(=O)(=O)c2ccccc2)cc1	-17.9%	>57
CC(=O)Nc1ccccc1NC(=O)CC(C)(C)C	8.2%	>57
CCOC(=O)c1ccc(Nc2nnc3nc(C)cc(C)n23)cc1	-16.1%	>57
O=C(O)CC12C[C@H]3C[C@@H](CC(O)(C3)C1)C2	-5.2%[8 µM]	>57
CCCN1Cc2cccc(C(=O)NCc3ccc4c(c3)OCO4)c2C1=O	12.7%	>57
O=C1CC(c2ccccc2)CC(O)=C1C=NCCN1CCNCC1 (stereo not given)	17.5%	>57
O=C(NCc1ccc(F)cc1)C1CCC(=O)N1C1CCCCC1 (stereo not given)	-18.8%	>57
CCC(C)C(NC(=O)c1ccc(Cl)cc1)C(=O)O (stereo not given)	-1.8%	>57
CCn1cc(C(=O)OC(C)C(=O)Nc2c(C)n(C)n(-c3ccccc3)c2=O)c(=O)c2ccc(C)nc21 (stereo not given)	-4.3%	>57
CC1(C)N(O)C2CCCCC2N1O (stereo not given)	10.3%	>57
COc1ccc(C2CC(c3ccc(OC)cc3)n3nc(N)nc3N2)cc1 (stereo not given)	10.7%	>57
CNS(=O)(=O)c1ccc(NC(=O)C(CCSC)NC(N)=O)cc1 (stereo not given)	7.5%	>57
COC(=O)c1cn(C(=O)c2cccs2)c2ccccc12	0.7%	>57
O=C(Nc1ccccc1)NC1CCN(CCCN2C(=O)c3ccccc3C2=O)CC1	-12.5%	>57
CC(C)C(NC(=O)c1ccc(S(=O)(=O)N2CCOCC2)cc1)c1nc2ccccc2[nH]1 (stereo not given)	?	>57
O=C(N/N=C1/C[C@@H](O)[C@@H](O)[C@@H]2[C@@H]3C(=O)N(C[C@@H]4CCCO4)C(=O)[C@H]3CC[C@@H]12)OCc1ccccc1	3.7%[1.6 µM]	·
O=C(Cn1nnc(-c2ccccc2)n1)OCc1csc(-c2ccccc2)n1	-0.7%	>57
Cc1nn2c3c(cnc2c1-c1ccccc1)C(=O)CCC3	6.1%	>57
CO[C@@H]1COC(=O)[C@H](C)NC(=O)C/C=C\[C@@H](C)[C@H](OC)COC(=O)[C@H](C)NC(=O)C/C=C\[C@H]1C	0.7%[8 µM]	·
CC(CCc1ccccc1)NC(=O)COC(=O)C1=COCCO1 (stereo not given)	-24.8%	>57

# (cont.)
molecule	Anthrax LT inh	Prx2 Sm inh
Cc1ccc(C)c(S(=O)(=O)c2c(N)n(/N=C/c3ccco3)c3nc4ccccc4nc23)c1	?	>57
O=C(c1ccc(Cl)cc1)N(Cc1cccs1)C1CCS(=O)(=O)C1 (stereo not given)	1.2%	>57
CCSC1=NCN(CCCC(=O)O)CN1	-22.3%	>57
CCOC(=O)N1CCN(C(=O)C2CCN(S(=O)(=O)CC)CC2)CC1	5.4%	>57
COc1ccc2nc(C)c(C(=O)OCCN(C)C)cc2c1	7.8%	>57
COc1cc(C(=O)N2CCN(C(=O)c3ccccc3)CC2)cc(OC)c1OC	11.3%	>57
COc1cc(C(=O)Nc2cc(-c3nc4cc(C)ccc4o3)ccc2C)cc(OC)c1OC	19.3%	>57
CCOc1ccccc1N(CC(=O)Nc1ccc2c(c1)OCCO2)S(C)(=O)=O	-2.7%	>57
CCCCn1c(SCC(=O)N2CC(C)CC(C)C2)nc2cc(S(N)(=O)=O)ccc21 (stereo not given)	4.3%	>57
CCOc1ccc(OCCSc2nc(C)cc(=O)[nH]2)cc1	9.5%	>57
CCn1c(COc2ccc(C)cc2)nnc1SCC(=O)Nc1ccc2c(c1)OCCO2	1.7%	>57
Cc1ccccc1-c1noc(-c2cccs2)n1	-28.3%	>57
CC(=O)c1ccc(N2CCN(S(=O)(=O)c3cccc(S(=O)(=O)N4CCOCC4)c3)CC2)cc1	-11.6%	>57
COC(=O)[C@H]1C[C@@H]1[C@H](NS(=O)(=O)c1ccc2ccccc2c1)c1ccccc1	-27.1%	>57
COCCn1c(=O)c(CCc2ccccc2)nc2cnc(Nc3ccccc3)nc21	?	>57
O=C(O)CC(C(=O)OC1CCCCC1)N1CCOCC1 (stereo not given)	0.3%	>57
CCOC(=O)C(NC(=O)c1ccccc1)(N1CCOCC1)C(F)(F)F (stereo not given)	4.0%	>57
Cc1ccc(Nc2nc(N)nc(CN3CCN(C(=O)c4ccco4)CC3)n2)cc1Cl	-18.9%	>57
C=CCn1c(O)c(C(C)=NCCCO)c(=O)[nH]c1=O	-4.3%	>57
CN1[C@@H]2CC[C@H]1CC(O[C@@H](c1ccccc1)c1ccccc1N)C2 (stereo not given in full)	-14.2%	>57
COc1ccccc1N1CCN(C(=O)COc2ccc(Cl)cc2Br)CC1	-22.6%	·
CN(C)CCCNC(=O)CCC1CCCCC1	-1.7%	>57
COc1ccccc1-c1ccc2ncnc(N(C)Cc3ccco3)c2c1	?	>57

# Full records, quoted from the list. Screens in order: Anthrax LT inh	Prx2 Sm inh
# Shown for COc1ccccc1N1CCN(C(=O)COc2ccc(Cl)cc2Br)CC1 = -22.6%	·
# Shown for CNS(=O)(=O)c1ccc(NC(=O)C(CCSC)NC(N)=O)cc1 (stereo not given) = 7.5%	>57
# Shown for COc1ccc2nc(C)c(C(=O)OCCN(C)C)cc2c1 = 7.8%	>57
# Shown for CCN(CC)C(=O)c1ccc(NS(=O)(=O)c2ccccc2)cc1 = -17.9%	>57
# Shown for CCOC(=O)N1CCN(C(=O)C2CCN(S(=O)(=O)CC)CC2)CC1 = 5.4%	>57
